Ecoli rRNA inh = reduced GFP signal of wild-type E. coli, primary screen, bacterial rRNA inhibitor project, GFP/RFP fluorescence, OD600, single point | E. coli WT GFP vs humanized-ribosome RFP mutants, 24 h; active compounds read low; DMSO median 0, no signal -100 | GFP signal change (wild-type ribosome), % (concentration not given with the values) | hit rate 1.6% among 350,000;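 active means significant combined selectivity score with lowered wild-type GFP, culture density cut under 30%, mutant RFP and density less affected; inactive means any of these conditions unmet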; further: one replicate is shown; some compounds called inactive have numbers as strong as hits
Vif A3G = inhibitors of Vif binding to APOBEC3G peptide, primary screen, biochemical, TR-FRET, GST-Vif 1-94, biotin-A3G peptide, dose response retest (AID 1117319); Virion infectivity factor (Human immunodeficiency virus type 1 group M subtype B (isolate …; TR-FRET GST-Vif / biotin-A3G peptide binding; higher % means a stronger effect; test concentration not given here; strong numbers were not always called active; one-dose inhibition, %; IC50 in µM for titrated hits; hit rate 0.57% among 260,000;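 active means above the screen mean plus three standard deviations and confirmed in dose response; inconclusive means results disagree or hit not tested in dose response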;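 further: Vif residues 1-94 fused to GST binding biotinylated APOBEC3G peptide 110-148; 0% = full assay without inhibitor and 100% = GST in place of GST-Vif; retest series ran down from 100 µM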
FGF22 binding = binders of human FGF22 protein, primary screen, FGF22 synaptogenesis inhibitor project, biophysical, thermal shift, single point; hit rate 1.5% among 340,000; calls only at 9.99 µM; recombinant FGF22 thermal shift, SYPRO orange fluorescence; percent of sucrose octasulfate shift, DMSO zero; Fibroblast growth factor 22 (Homo sapiens), Q9HCT0;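 active means melting point raised past a set limit in the mean and every replicate; inconclusive means no clear call; three in four hits are not shown here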
Target sequence (Q9HCT0 whole entry, looked up): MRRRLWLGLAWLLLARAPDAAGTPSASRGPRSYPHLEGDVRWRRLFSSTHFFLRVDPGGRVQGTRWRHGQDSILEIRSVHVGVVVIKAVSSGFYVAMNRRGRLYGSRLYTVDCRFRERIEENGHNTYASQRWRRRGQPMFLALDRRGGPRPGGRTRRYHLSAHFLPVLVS
MLL AF4-AF9 inh = inhibitors of AF4 peptide binding to AF9, primary screen, biochemical, AlphaScreen, biotin-AF4 peptide, FLAG-AF9, single point. Protein AF-9 (Homo sapiens), P42568. hit rate 0.47% among 350,000. inhibition, % at 10 µM;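 active means every replicate reaching a set inhibition limit, whatever the replicate mean, cut at about 25% in these data; inconclusive means mean inhibition reaches that limit but some replicates miss it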;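 further: 0% = plate neutral control median and 100% = total signal loss; the record names both 10 and 1 µM as test concentration; the first replicate is given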
Ecoli growth = E. coli growth inhibition, primary screen, OD600; OD600 absorbance (test concentration not listed); Escherichia coli growth, 23 h; active compounds read low; hit rate 0.21% among 330,000;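 active means OD600 absorbance below the run mean of sample wells minus 3.6 SD, in any replicate, cut at about 0.56 in these data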;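 further: stock transfer was 300 nL into about 60 µL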
ALR H2O2 inh = inhibitors of human ALR sulfhydryl oxidase, primary screen, biochemical, H2O2 detection, HRP-luminol luminescence, single point; FAD-linked sulfhydryl oxidase ALR (Homo sapiens), P55789; purified ALR, DTT oxidation; inhibition, % (no concentration beside the values); hit rate 3.8% among 290,000; AID 485317, 2010;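 active means mean and each replicate at 75% or more; inconclusive means only one of the two met; inactive means neither met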;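 further: stock transfer was 7.5 nL into about 7.5 µL; 0% = neutral wells and 100% = wells with inactivated enzyme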
Target sequence (P55789 whole entry, looked up): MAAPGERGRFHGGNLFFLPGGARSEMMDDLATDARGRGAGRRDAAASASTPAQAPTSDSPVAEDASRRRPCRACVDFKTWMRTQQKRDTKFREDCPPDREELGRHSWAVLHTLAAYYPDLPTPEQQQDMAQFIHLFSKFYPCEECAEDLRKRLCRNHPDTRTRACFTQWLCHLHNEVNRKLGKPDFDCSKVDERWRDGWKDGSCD
HNF4A DNA FP = change in binding of human HNF4A to DNA, primary screen, biochemical, fluorescence polarization, FITC-DNA; Hepatocyte nuclear factor 4-alpha (Homo sapiens), P41235; 1 h; activity change, % at 10 µM; hit rate 0.3% among 360,000; in the data active means activity change above about 30%, passing the limit was not always enough;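 further: controls were the assay level and a saturating level of protein; the project sought stronger binding though the title names inhibitors; some compounds called inactive have numbers as strong as hits; positive values seem to mean higher polarization but the record does not say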
Target sequence (P41235 whole entry, looked up): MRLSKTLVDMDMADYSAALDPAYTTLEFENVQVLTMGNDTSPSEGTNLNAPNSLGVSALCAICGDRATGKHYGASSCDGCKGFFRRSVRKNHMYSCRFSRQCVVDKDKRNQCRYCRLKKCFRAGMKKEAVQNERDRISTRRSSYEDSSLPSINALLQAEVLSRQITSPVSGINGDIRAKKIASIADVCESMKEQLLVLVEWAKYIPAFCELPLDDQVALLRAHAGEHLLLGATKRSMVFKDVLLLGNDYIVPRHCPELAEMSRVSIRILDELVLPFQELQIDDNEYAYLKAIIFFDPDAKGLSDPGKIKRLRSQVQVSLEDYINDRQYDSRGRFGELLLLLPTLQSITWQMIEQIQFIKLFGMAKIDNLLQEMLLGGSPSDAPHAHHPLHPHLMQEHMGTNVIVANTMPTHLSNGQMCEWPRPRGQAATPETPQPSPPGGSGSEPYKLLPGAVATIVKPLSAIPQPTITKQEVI
Ecoli rRNA inh OD600 = second read-out of Ecoli rRNA inh, no call of its own (marks repeat the call); OD600 change, %; measured here: OD600 growth;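 optical density of the mix in the first replicate; 0 = DMSO median and -100 = no signal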
Ecoli rRNA inh RFP = further read-out of Ecoli rRNA inh, marked with its call; RFP signal change, %; measured here: RFP humanized mutant strains;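 first replicate; 0 = DMSO median and -100 = no signal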
Numbers without * were called inactive; i = inactive; ? = inconclusive; . = not tested or not shown. A portion of the library (hit frequency here may not be typical).

SMILES	Ecoli rRNA inh	Ecoli rRNA inh OD600	Ecoli rRNA inh RFP	Vif A3G	FGF22 binding	MLL AF4-AF9 inh	Ecoli growth	ALR H2O2 inh	HNF4A DNA FP
COc1cccc(/C=C2\SC(=S)N(CCCC(=O)NC3=NCCS3)C2=O)c1	9	10	2.7	.	i	2.2	0.76	3	4.9
O=C(CC1(O)C(=O)N(Cc2ccccc2)c2ccccc21)c1ccc2c(c1)OCO2 (centres undefined)	.	.	.	-2%	.	.	0.7	1	0.8
Fc1ccc(-n2c(CN3CCCCC3)n[nH]c2=S)cc1	13	4	-5.5	?	i	-5.6	0.7	87*	-2.4
Cc1nc(N)c(Br)c(C)c1Br	17	11	2.3	-1%	i	-1.1	0.68	-6	3.6
O=C(Nc1ccc(S(=O)(=O)Nc2ccccc2)cc1)C1COc2ccccc2O1 (centres undefined)	.	.	.	-5%	.	.	0.68	-6	19
CCCCNC(=O)NNC(=O)COc1cc(C)cc(C)c1	.	.	.	1%	.	.	0.61	-5	-0.3
COc1ccc(CCNC(=O)COc2cccc3c2OC(C)(C)C3)cc1OC	1	-12	0.9	-6%	i	0.2	0.71	-2	2.8
CNC(=O)c1ncoc1-c1ccc(Cl)cc1	18	6	-0.1	11%	i	-0.7	0.7	-13	2.2
C/C(=N\NS(=O)(=O)c1ccccc1)c1ccc2c(c1)OCCO2	.	.	.	-6%	i	4.1	.	.	1.8
COc1ccc(-c2nnn(CC(=O)N3CCN(c4ccccc4OC)CC3)n2)cc1	.	.	.	-3%	.	.	0.73	-3	2.7
O=C(C[C@@H]1CC[C@H]2[C@@H](COC[C@H](O)CN2Cc2cccc(Cl)c2)O1)N1CCCCC1	-3	-10	-1.1	.	i	-4.1	.	.	.
O=C(/C=C1\OCc2cc(OCc3ccccc3)ccc21)OCc1ccccc1	17	14	1.4	.	i	.	.	.	11
Cc1cc(C)nc(N(C#N)Cc2ccc(Cl)cc2)n1	-39	-52	-2.7	11%	i	-1.2	0.7	6	1.2
Cc1nc2c(ccc3c([N+](=O)[O-])cccc32)c(C)c1C	7	8	4.0	3%	i	2.1	0.65	-15	-2.9
CCCc1cc(=O)[nH]c(SCC(=O)c2cc(C)n(CCOC)c2C)n1	.	.	.	-14%	.	.	0.73	.	1.4
CC1CCN(C(=O)CSc2nnc(CNC(=O)c3ccc(S(=O)(=O)N(C)C)cc3)o2)CC1	.	.	.	.	i	-1.4	0.68	-7	-0.9
COc1ccccc1C(C(=O)NCc1ccc(F)cc1)N(C(=O)c1csnn1)C1CC1 (centres undefined)	4	-3	-0.5	.	i	4.3	0.65	-6	-0.5
COc1ccccc1NC(=O)c1ccc(NC2=NC3CS(=O)(=O)CC3S2)cc1 (centres undefined)	-3	-2	-1.9	.	i	4.4	0.76	-13	5.7
CCOc1ccc(S(=O)(=O)Nc2ccccc2SC)c2cccnc12	.	.	.	?	.	.	0.74	-6	-0.1
O=C(Nc1cccc(-c2ccccc2)c1)N1CCN(C(=O)Nc2cccc(-c3ccccc3)c2)CC1	6	4	-7.3	-9%	i	3.8	0.67	-2	-3.5
COc1cc2c(cc1OC(C)=O)CCCCC2=O	2	6	0.2	-1%	i	3.8	.	.	-1.8
COc1ccc(C)cc1S(=O)(=O)Nc1cccc(Cl)c1Cl	.	.	.	-3%	.	.	0.79	1	1.5
Cc1cc(C)cc(C(=O)Nc2cccc(NC(=O)c3ccco3)c2)c1	-11	-50	-4.8	0%	i	-2.8	0.61	-8	-2.6
CC1=CC(=O)Nc2ncccc2O1	7	10	4.8	-2%	i	0.8	.	.	-6.2
CCCCNC(=O)N(O)C1N(/N=C/c2cccs2)C(=S)SC1(C)C (centres undefined)	-16	-3	1.2	.	i	3.1	.	-4	-4.5
C[C@@H]1CCCCO[C@@H](CN(C)CC2CCCCC2)[C@H](C)CN([C@@H](C)CO)C(=O)c2cc(NC(=O)Cc3ccccc3)ccc2O1	4	4	0.3	.	i	-2.5	.	.	.
CC1(C(=O)NS(=O)(=O)c2cccc(F)c2)CCN1C(=O)Cc1cccs1 (centres undefined)	5	13	12	.	i	-1.1	.	.	4.3
C=CCCC1CN(CCCC)S(=O)(=O)c2c(F)cccc2O1 (centres undefined)	6	-24	-4.8	.	i	-3.8	.	.	-1.7
C[C@@H]1CN([C@H](C)CO)C(=O)Cc2cc(NC(=O)C3CC3)ccc2O[C@@H]1CN(C)C	3	7	-1.9	.	i	-0.7	.	.	.
COC(=O)c1ccc(-n2c(CCC(=O)O)ccc2-c2ccc(C)cc2)cc1	.	.	.	1%	.	.	0.62	63	9.8
CN(CCCNC(=O)COc1cc(=O)n(C)c2ccccc12)Cc1ccccc1	.	.	.	15%	.	.	0.71	-26	-3.3
S=c1[nH]nc(-c2cccs2)n1/N=C/c1cn(-c2ccccc2)nc1-c1ccccc1	8	-7	-1.6	?	i	.	.	.	1.4
O=C(NC1CCS(=O)(=O)C1)C1CCCC1 (centres undefined)	10	13	-1.4	0%	i	-2.1	0.68	3	-3.0
CCOc1cc(/C=C/C(=O)O)ccc1OCc1ccccc1	-14	-3	0.0	-6%	i	4.7	0.7	7	2.7
Cc1sc2ncnc(N3CCCCC3)c2c1C	-49	-55	-23	0%	i	1.6	0.61	-2	4.6
Cc1nc2ccccc2n1CC(=O)NCc1ccccc1	.	.	.	?	.	.	0.67	-12	-3.0
N#C/C(=C\Nc1ccccc1SC(F)(F)F)c1nc(-c2ccccc2)cs1	7	5	-5.6	.	i	-4.4	0.72	-19	3.4
O=C(Nc1ccccc1)NC1(C(=O)NCc2ccco2)CCCCC1	.	.	.	-1%	.	.	0.67	-1	0.6
O=C(NCC1CCCO1)c1cccnc1Nc1ccccc1F (centres undefined)	.	.	.	-1%	.	.	0.69	-21	6.1
Cc1cc(C)c(NC(=O)CCCn2c(=O)oc3ccccc32)c(C)c1	.	.	.	1%	i	-0.5	0.67	2	0.1
O=C(NC1CCC(O)CC1)c1cc(-c2ccco2)nc2ccccc12 (centres undefined)	10	16	-3.2	?	i	-0.2	0.67	28	-15
Cc1cccc(-c2nnc(SCc3ccccc3)o2)c1	.	.	.	-6%	.	.	0.68	-8	2.4
COC(=O)C(Cc1ccccc1)NC(=O)CC(C)CC(=O)Nc1ccc(OC)cc1OC (centres undefined)	1	11	12	-2%	i	0.4	0.66	-8	-2.9
COC(=O)[C@]12C[C@H](CC(=O)NCCc3ccccc3OC)C(=O)N(CCC3=CCCCC3)C1=C[C@H](COCc1ccccc1)O[C@@H]2C	8	11	-2.1	.	i	-1.6	.	.	.
COC(=O)C[C@H]1C=C[C@H](NC(=O)C2CCOCC2)[C@@H](CO)O1	4	8	0.5	.	.	-1.2	.	.	-1.3
CCCc1cc(C(=O)Cc2ccccn2)c(O)cc1O	5	0	15	2%	i	0.9	0.67	-1	-1.5
N#C/C(=C(/O)c1ccc(C(=O)c2ccccc2)cc1)c1nc2ccccc2[nH]1	13	8	2.5	7%	i	-6.0	0.64	2	4.0
O=C(C1CC1)N1[C@@H]2CNc3ccccc3[C@@H]2[C@@H]1CO	1	5	-1.9	.	i	-0.3	.	.	.
COc1ccccc1C(=O)NCCC(=O)NC(C)c1ccc(-n2ccnc2)cc1 (centres undefined)	15	13	0.3	6%	i	2.9	0.69	-8	0.0
Cc1ccc(CS(=O)(=O)CCC(=O)NCCC2=CCCCC2)cc1	8	3	-3.0	-5%	i	-1.8	0.71	-8	-1.9

The results go on:
SMILES	Ecoli rRNA inh	Ecoli rRNA inh OD600	Ecoli rRNA inh RFP	Vif A3G	FGF22 binding	MLL AF4-AF9 inh	Ecoli growth	ALR H2O2 inh	HNF4A DNA FP
CC[n+]1c(/C=C/C=C/N(C(C)=O)c2ccccc2)sc2ccccc21	.	.	.	8%	.	.	.	50	-42
O=C1Nc2ccc([N+](=O)[O-])cc2C1(O)N1CCCCCC1 (centres undefined)	4	7	1.7	2%	.	.	0.68	-2	-4.9
NC(=O)c1ccc[n+](CC(=O)NCc2ccc(Cl)cc2)c1	7	6	3.1	-6%	i	-7.4	0.71	.	3.0
CCSc1ncc(Cl)c(C(=O)Nc2ccc(S(=O)(=O)Nc3ncccn3)cc2)n1	10	7	0.3	-3%	i	-1.2	0.72	-3	-2.1
Cn1c(-c2ccccc2)cnc1NCc1ccc(F)cc1	0	0	1.4	0%	i	0.0	0.65	.	2.0
Clc1ccc(C2=CSC3=Nc4cccc5cccc(c45)N23)cc1	.	.	.	10%	.	.	0.71	-40	5.7
COc1cc(Cl)ccc1OC1(C)CCN(Cc2ccccc2OC(F)F)C1 (centres undefined)	-5	-25	-8.0	.	i	2.9	.	.	-4.6
C[C@@H]1CN([C@@H](C)CO)C(=O)Cc2cc(NC(=O)NC3CCCCC3)ccc2O[C@@H]1CN(C)Cc1ccc(C(F)(F)F)cc1	3	2	0.7	.	i	-1.7	.	.	.
CN1C=CC(=C[N+](=O)[O-])N(C)C1=O	5	10	-2.2	.	i	-4.3	.	.	-1.6
O=C1N[C@@H](Cc2ccccc2)C(=O)N1CCN1CCOCC1	.	.	.	-3%	.	.	0.66	-3	0.8

9 entries from above, with two lines to a compound:
Values in the order: Ecoli rRNA inh	Ecoli rRNA inh OD600	Ecoli rRNA inh RFP	Vif A3G	FGF22 binding	MLL AF4-AF9 inh	Ecoli growth	ALR H2O2 inh	HNF4A DNA FP
> O=C1Nc2ccc([N+](=O)[O-])cc2C1(O)N1CCCCCC1 (centres undefined)
  4	7	1.7	2%	.	.	0.68	-2	-4.9
> NC(=O)c1ccc[n+](CC(=O)NCc2ccc(Cl)cc2)c1
  7	6	3.1	-6%	i	-7.4	0.71	.	3.0
> CCSc1ncc(Cl)c(C(=O)Nc2ccc(S(=O)(=O)Nc3ncccn3)cc2)n1
  10	7	0.3	-3%	i	-1.2	0.72	-3	-2.1
> Cn1c(-c2ccccc2)cnc1NCc1ccc(F)cc1
  0	0	1.4	0%	i	0.0	0.65	.	2.0
> Clc1ccc(C2=CSC3=Nc4cccc5cccc(c45)N23)cc1
  .	.	.	10%	.	.	0.71	-40	5.7
> COc1cc(Cl)ccc1OC1(C)CCN(Cc2ccccc2OC(F)F)C1 (centres undefined)
  -5	-25	-8.0	.	i	2.9	.	.	-4.6
> C[C@@H]1CN([C@@H](C)CO)C(=O)Cc2cc(NC(=O)NC3CCCCC3)ccc2O[C@@H]1CN(C)Cc1ccc(C(F)(F)F)cc1
  3	2	0.7	.	i	-1.7	.	.	.
> CN1C=CC(=C[N+](=O)[O-])N(C)C1=O
  5	10	-2.2	.	i	-4.3	.	.	-1.6
> O=C1N[C@@H](Cc2ccccc2)C(=O)N1CCN1CCOCC1
  .	.	.	-3%	.	.	0.66	-3	0.8

From PubChem
